Env fusion inh – inhibitors of HIV Env-mediated cell fusion. HeLa-JRFL Env/CEM21 cell fusion, luciferase. inhibition, % at 12.3 µM. 1.1% of 360,000 active. AID 651610;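 active = mean replicate inhibition score of at least 50 and every replicate individually at or above 50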;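 also: 0% = plate neutral controls and 100% = maraviroc near 300 nM; one replicate is shown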
Yeast UUG start – yeast start codon fidelity modulation; S. cerevisiae UUG-firefly luciferase reporter, luminescence/redox ratio; activity score, % at 18.7 µM; 0.13% of 350,000 active; AID 602363;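 active = replicate mean at a twofold rise or more, about +100% in these data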;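 also: firefly luciferase made from a UUG start codon reports start codon fidelity; reporter light over untreated wells divided by growth signal over untreated wells; some hits fall short of that in this replicate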
MT1-MMP act inh – blocks activation of human MT1-MMP. P50281. HT1080 RFP-PRO-GFP cells, GFP/RFP ratio fluorescence, overnight; percent of plate control window, DMSO zero. GFP/RFP ratio change, % at 20 µM. 0.061% of 360,000 active. AID 651647;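 active = GFP/RFP ratio change of at least 30% with cell ATP level not reduced by more than half and red fluorescence within 50% of control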; also: strong numbers were not always called active
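Assay system: RFP-PRO-GFP reporter HT1080 cells; read-out basis: GFP/RFP fluorescence ratio; benchmarks: DMSO wells and RFP-L50D-GFP cells; doses: 20 µM single dose, 1% DMSO; schedule: overnight cell settling, then overnight compound exposure, 37 °C, 5% CO2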
PABP polyA inh – blocks human PABP binding to poly(A) RNA | P11940 | fluorescence polarization | inhibition, % at 35 µM | 1% of 290,000 active;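 active = 50% or more with normal probe brightness, or confirmed in later tests; about a fifth of its hits are not listed in these tables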;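 also: calls also rest on retests at 20 µM and on dose response follow-up; controls were probe without protein and protein plus probe with vehicle; some compounds called inactive have numbers as strong as hits; many hits fall short of the cut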
Target sequence (P11940 whole entry, looked up): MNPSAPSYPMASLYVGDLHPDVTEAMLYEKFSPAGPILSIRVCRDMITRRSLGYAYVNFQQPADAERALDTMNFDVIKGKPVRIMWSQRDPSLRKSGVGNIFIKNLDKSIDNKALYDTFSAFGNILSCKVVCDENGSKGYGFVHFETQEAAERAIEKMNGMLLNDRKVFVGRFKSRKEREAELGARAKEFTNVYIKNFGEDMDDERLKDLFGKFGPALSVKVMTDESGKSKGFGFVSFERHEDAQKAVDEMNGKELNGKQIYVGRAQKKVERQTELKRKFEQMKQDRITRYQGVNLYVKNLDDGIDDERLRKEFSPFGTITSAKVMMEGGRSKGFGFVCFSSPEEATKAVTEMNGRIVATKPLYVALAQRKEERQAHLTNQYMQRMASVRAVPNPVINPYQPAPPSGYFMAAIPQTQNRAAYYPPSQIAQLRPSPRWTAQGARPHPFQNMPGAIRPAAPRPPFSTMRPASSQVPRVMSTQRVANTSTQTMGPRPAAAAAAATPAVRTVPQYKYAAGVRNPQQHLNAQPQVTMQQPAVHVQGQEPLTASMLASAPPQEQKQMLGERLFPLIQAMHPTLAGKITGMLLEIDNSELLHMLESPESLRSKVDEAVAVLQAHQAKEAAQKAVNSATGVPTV
eIF4H inh – inhibitors of RNA binding by human eIF4H | Q15056 | eIF4H fluorescence polarization binding assay | inhibition, % at 35 µM | 0.94% of 290,000 active | AID 2012;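 active = 50% or more with normal probe brightness, or confirmed in later tests; about a fifth of its hits are not listed in these tables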;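 also: calls also rest on retests at 20 µM and on dose response follow-up; 0% = protein and probe with vehicle and 100% = probe without protein; strong numbers were not always called active; many hits fall short of the cut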
CSC inhib – blocks cancer stem cells; cancer stem cell-like cells viability, luminescence; inhibition, % at 7.5 µM; 1.1% of 300,000 active; AID 2717;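 active = mean at 75% or more and at least half the replicates too; tested in HMLE shEcad cells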;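 also: 0% = median of negative and 100% = median of positive control wells; the first replicate is given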
Rce1 inhib – yeast Ras-converting enzyme inhibition. Q03530. AID 2563. 0.27% of 290,000 active. yeast membranes, quenched prenylated peptide cleavage fluorescence. calls only;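 active = fall in fluorescence gain of 50% or more versus controls, with final raw signal at or below 3038400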;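 also: plate controls were neutral control wells for no effect and wells lacking membranes for full effect; tested at 10 µM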
Target sequence (Q03530 whole entry, looked up): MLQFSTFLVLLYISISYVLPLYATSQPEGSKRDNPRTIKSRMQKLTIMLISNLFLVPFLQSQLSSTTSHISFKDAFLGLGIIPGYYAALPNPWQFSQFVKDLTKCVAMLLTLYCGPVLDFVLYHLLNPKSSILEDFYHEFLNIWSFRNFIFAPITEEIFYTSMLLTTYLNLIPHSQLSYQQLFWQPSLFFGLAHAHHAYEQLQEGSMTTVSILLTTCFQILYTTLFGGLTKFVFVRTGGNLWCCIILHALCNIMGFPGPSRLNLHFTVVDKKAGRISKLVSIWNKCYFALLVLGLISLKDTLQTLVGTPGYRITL
eIF4H inh retest – further read-out of eIF4H inh, marked with its call; inhibition, %; compound at 20 µM; confirmation average;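 mean of two retest wells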
PABP polyA inh retest – further read-out of PABP polyA inh, marked with its call; inhibition, %; compound at 20 µM; confirmation repeats;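 mean of two retest wells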
MT1-MMP act inh RFP – recorded beside MT1-MMP act inh, whose call it bears; RFP signal change, %; measured here: RFP expression control read;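 0 = vehicle wells; hits needed this value within 50% of zero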
Active calls of the source: *; i = inactive; / = no result given. These rows are one share of the data; rates above refer to the full screens.

The first three records, ahead of the listing:
SMILES | Env fusion inh | Yeast UUG start | MT1-MMP act inh | MT1-MMP act inh RFP | PABP polyA inh | eIF4H inh | CSC inhib | Rce1 inhib | others
Cc1nnc(NC(=O)CSc2nnc(CNC(=O)C34CC5CC(CC(C5)C3)C4)n2C2CCCCC2)s1 | -2.3 | -5.2 | 2.2 | -1.6 | -3.4 | -10.5 | -7.0 | i
COc1ccccc1CNC(=O)CNCCc1ccc(OC)c(OC)c1 | 5.2 | -2.3 | 1.1 | 1.4 | -3.8 | 11.2 | -9.7 | i
O=C(COC(=O)CCc1nc2ccccc2c(=O)[nH]1)Nc1c(Cl)cccc1C(F)(F)F | -5.6 | / | 0.4 | 4.8 | / | / | -5.5 | i

The whole of this part, from the start:
SMILES | Env fusion inh | Yeast UUG start | MT1-MMP act inh | MT1-MMP act inh RFP | PABP polyA inh | eIF4H inh | CSC inhib | Rce1 inhib | others
Cc1nnc(NC(=O)CSc2nnc(CNC(=O)C34CC5CC(CC(C5)C3)C4)n2C2CCCCC2)s1 | -2.3 | -5.2 | 2.2 | -1.6 | -3.4 | -10.5 | -7.0 | i
COc1ccccc1CNC(=O)CNCCc1ccc(OC)c(OC)c1 | 5.2 | -2.3 | 1.1 | 1.4 | -3.8 | 11.2 | -9.7 | i
O=C(COC(=O)CCc1nc2ccccc2c(=O)[nH]1)Nc1c(Cl)cccc1C(F)(F)F | -5.6 | / | 0.4 | 4.8 | / | / | -5.5 | i
COc1cc(NS(C)(=O)=O)c(OC)cc1NC(=O)c1cccc(F)c1 | / | -27.0 | 6.8 | 4.6 | -13.2 | 3.6 | -8.2 | i
CC1(C)Cc2c(c(N3CCCC3)nc3sc(C(=O)Nc4ccccc4)c(N)c23)CO1 | -19.8 | / | -4.2 | -0.9 | -1.2 | 1.4 | 16.5 | i
CC1Cc2cc(S(=O)(=O)N3CCCCC3)ccc2N1C(=O)C1CCC1 (stereo not drawn) | -10.2 | 7.3 | 0.4 | -0.7 | -0.8 | -6.0 | -12.2 | i
NC(=O)c1ccccc1OCC(=O)Nc1cccnc1Cl | / | -3.0 | 0.6 | 4.8 | / | / | -1.7 | /
CN(C)c1ccc(C(=S)N2CCN(Cc3ccccc3)CC2)cc1 | 1.1 | -25.2 | -0.1 | -5.4 | -0.4 | -0.9 | 10.7 | i
CCc1ccc(CN(C)C(=O)CC2C(=O)NCCN2Cc2ccoc2)cc1 (stereo not drawn) | 1.5 | / | -2.0 | 1.3 | -6.3 | 2.2 | 12.8 | i
COc1cccc(CNc2nc3ccccc3n2CCN2CCCCC2)c1OC | / | 2.3 | 0.1 | -2.2 | 3.3 | 5.2 | 5.2 | /
O=C(Nc1ccccc1)/C(=C/c1cccnc1)NC(=O)c1ccco1 | 13.5 | / | 3.7 | 5.8 | 49.5 | 1.5 | 1.0 | i
COc1ccc(NC(=O)Nc2ccccc2C(N)=O)cc1OC | -12.3 | -27.0 | 6.5 | 1.8 | 8.9 | -5.2 | -7.9 | i
O=C(Nc1ccc2snnc2c1)N1CCN(c2ccccc2)CC1 | 4.1 | -7.9 | 3.5 | -3.2 | -6.7 | 0.8 | 1.6 | i
CC(=O)N1c2ccccc2CCc2ccc(N)cc21 | -23.3 | -11.8 | -5.6 | -3.7 | 16.9 | 17.5 | -12.4 | i
CCCCCCCCN1[C@@H](CC(=O)OCC)c2cc(C(F)(F)F)ccc2S1(=O)=O | -5.1 | -15.7 | 1.9 | -11.1 | / | / | 13.9 | i
Cn1cccc1/C=N\NC(=O)c1cncc(Br)c1 | 12.5 | -28.9 | 3.6 | 5.4 | 0.5 | 7.7 | -12.2 | i
NC(=NCCc1ccc(Cl)cc1)NS(=O)(=O)c1ccccc1 | 3.1 | -17.7 | 0.6 | 1.4 | / | / | 3.1 | i
COc1ccc(NC(=O)CN2CCC(C)CC2)c([N+](=O)[O-])c1 | / | 12.9 | 7.3 | -0.4 | 10.4 | -7.1 | 5.5 | i
CC(OC(=O)C1=Cc2ccccc2OC1)C(=O)NC(C)(C)C (stereo not drawn) | 4.3 | / | -1.3 | -13.8 | -2.0 | 6.0 | -12.8 | i
O=[N+]([O-])c1cc(CS(=O)(=O)Oc2ccc(Cl)cc2)c(O)c([N+](=O)[O-])c1 | 13.1 | / | 0.5 | -2.6 | / | / | 1.0 | i
Fc1ccccc1N1CCN(Cc2cnc(Cl)s2)CC1 | 9.3 | -2.2 | -1.0 | -3.4 | -6.6 | -6.5 | -3.5 | i
C=C(C)COc1ccc(-c2[nH]ncc2-c2ccc(Br)cc2)c(O)c1 | 34.1 | / | -1.4 | -8.7 | -3.0 | 6.6 | 67.7 | i
Cc1nn(C)cc1S(=O)(=O)Nc1ccc(C(F)(F)F)cc1 | / | -12.5 | 4.4 | 4.3 | -7.0 | -1.5 | 4.2 | i
COc1ccc(C)cc1NC(=S)NC(C)c1ccc(OC)c(OC)c1 (stereo not drawn) | -22.2 | / | -4.3 | -2.1 | -7.7 | -4.2 | 13.5 | i
COC(=O)[C@@]1(Cc2ccc(F)cc2)[C@@H]2[C@@H](CC(=O)[C@H]2CC(=O)C(=O)N(C)C)CN1C(=O)c1ccccc1 | / | -0.7 | -0.5 | 4.7 | 118.4* | 71.4* | -1.2 | /
Cc1cccc(NC2=CC(=O)OC(C)C2)c1 (stereo not drawn) | / | -9.2 | 1.0 | 4.7 | 1.9 | -1.4 | / | i
Cc1ccc2nc3c(cc(S(=O)(=O)c4ccccc4)c(=N)n3Cc3ccco3)c(=O)n2c1 | 7.8 | -15.1 | -18.5 | -7.0 | 74.8 | 70.4 | 12.2 | i | eIF4H inh retest=36.0;PABP polyA inh retest=14.3
CCCCN(C(=O)CN(C)CC(=O)Nc1cccc(OC)c1)c1c(N)n(CCCC)c(=O)[nH]c1=O | / | -14.2 | -0.8 | 4.8 | / | / | -13.0 | /
COCCN(C(=O)COC(=O)/C=C/c1cccs1)c1c(N)n(Cc2ccccc2)c(=O)[nH]c1=O | 41.7 | -15.6 | -0.9 | -0.9 | / | / | -7.2 | i
Cc1ccc(S(=O)(=O)CC(=O)N2CCN(c3cccc(C(F)(F)F)c3)CC2)cc1 | / | -3.7 | -0.1 | -0.9 | 11.2 | -3.0 | -12.0 | i
Cc1ccc(NC(=O)c2cccc(F)c2)cc1S(=O)(=O)N1CCCCCC1 | 35.9 | / | -0.5 | -15.1 | -0.1 | -2.3 | -17.3 | i
Cc1nn(CC(=O)NNC(=O)c2cccc(Br)c2)c(C)c1[N+](=O)[O-] | 0.7 | -10.4 | 2.9 | 2.7 | 4.5 | -0.9 | -10.2 | /
Cc1cc(C(=O)OCC(=O)NCc2ccco2)c(C)n1-c1ccccc1 | / | -18.5 | -2.4 | -11.9 | 19.2 | 40.8 | 55.9 | i
COc1ccc(OC)c(C(O)c2coc3ccc(O)c(CN4CCOCC4)c23)c1 (stereo not drawn) | / | / | -2.3 | 0.2 | -7.8 | -5.3 | -5.5 | i
CC(C)NCC(=O)Nc1c2c(nc3ccccc13)CCC2 | -3.9 | -0.4 | -0.4 | 2.2 | 7.6 | 16.3 | -14.4 | i
C=CCC[C@@H](Cc1ccc(F)cc1)C(=O)OC[C@@H](Cc1c[nH]c2ccccc12)NC(=O)[C@H](CC=C)CC(=O)N(CCO)Cc1ccccc1 | 4.4 | -13.2 | -14.4 | -27.7 | / | / | / | /
CN(C(=O)c1cccc(NC(=O)Cc2ccc(NC(=O)C3CCCN(C(=O)C4CC4)C3)cc2)c1)C1CCCC1 (stereo not drawn) | -11.3 | 9.8 | 1.1 | -0.7 | / | / | / | /
O=C(Nc1ccccc1N1CCOCC1)C1CCCO1 (stereo not drawn) | / | -5.2 | -0.5 | 2.9 | / | / | -14.3 | /
COC(=O)[C@@H](c1ccccc1)N(C)S(=O)(=O)c1cccc(S(=O)(=O)N(C)[C@@H](C(=O)OC)c2ccccc2)c1 | 52.0 | -16.3 | 11.0 | -13.9 | 6.7 | -11.3 | 6.2 | i
Nc1nc2nc(-c3ccccc3)cc(C(F)(F)F)c2s1 | -18.5 | -20.3 | 0.5 | 2.9 | -0.2 | 20.4 | -5.1 | /
O=C(NCCN1C(=O)C2C3C=CC(C3)C2C1=O)N1CCCCC1 (stereo not drawn) | -0.3 | 17.6 | -1.9 | 2.4 | -3.9 | 5.0 | -7.4 | i
CN(C)S(=O)(=O)N1CCN(S(=O)(=O)N(C)C)CC1 | / | 1.6 | -5.9 | -1.4 | -8.1 | -0.2 | -2.1 | i
O=C(Nc1ccc(S(=O)(=O)NCc2ccccc2)cc1)C1CCCCC1 | 25.9 | -6.3 | 6.3 | -9.0 | 2.5 | -13.7 | -4.2 | i
CCOc1ccc(S(=O)(=O)Nc2cccc(OC)c2)cc1 | -0.3 | -2.7 | -0.9 | -8.1 | -0.2 | -4.8 | / | i
CCOC(=O)N1CCC(=NNC(=O)COc2ccc(C#N)cc2)CC1 | -2.1 | -12.2 | 2.9 | 6.7 | 27.8 | 0.3 | -9.9 | i
CCOC(=O)C1=CN(Cc2cccc(F)c2)S(=O)(=O)NC1c1cccc(OC)c1 (stereo not drawn) | 14.5 | 3.9 | 2.7 | 0.0 | / | / | / | /
CCn1c(C(C)NC(=O)c2cccs2)n[nH]c1=S (stereo not drawn) | / | -8.4 | -3.6 | 0.2 | 2.9 | -9.6 | -5.3 | i
COc1ccccc1N1CC(C(=O)Nc2nnc(SCC(=O)NC(C)C)s2)CC1=O (stereo not drawn) | -7.0 | -3.0 | -7.0 | 0.4 | 1.4 | 0.8 | -14.8 | i
Cc1noc(C)c1S(=O)(=O)N(CC(=O)NCc1ccc(F)cc1)c1ccc(C(C)C)cc1 | 21.8 | -1.3 | -7.0 | -5.4 | -2.6 | -12.5 | -1.1 | i
COc1ccc(C(=O)Nc2ccc(S(=O)(=O)N3CCN(C)CC3)cc2)cc1[N+](=O)[O-] | -1.9 | -18.0 | 0.8 | -0.3 | 5.6 | 2.2 | / | i
Cc1nn(-c2ccccc2)c(C)c1N | 5.5 | -13.3 | -1.8 | 0.9 | 6.3 | 2.1 | -5.9 | i
COc1ccccc1CNC(=O)C1CCCN(S(=O)(=O)c2cnc[nH]2)C1 (stereo not drawn) | -58.2 | -8.6 | -0.2 | 5.4 | 19.2 | -6.4 | 15.7 | /
Cc1noc(/C=C/N(C)C)c1S(=O)(=O)N(C)Cc1ccc(F)cc1 | 12.7 | 14.7 | 0.4 | 1.6 | -0.7 | -9.0 | 7.5 | i
CC1(C)CC(NS(=O)(=O)c2ccccc2)CC(C)(C)N1 | / | -23.8 | 5.2 | 2.5 | -1.2 | -2.0 | -3.3 | i
COC(=O)c1scc(S(C)(=O)=O)c1-n1cccc1 | -6.7 | 19.0 | 4.3 | -0.5 | -2.4 | 6.5 | -7.6 | i
CN(C)S(=O)(=O)c1cccc(NC(=O)COC(=O)CNC(=O)c2ccccc2F)c1 | 5.9 | -10.4 | 1.1 | -0.3 | -7.2 | -4.1 | -1.7 | i
CC12CC3CC(C)(C1)CC(C(=O)NC1=NCCS1)(C3)C2 | 10.0 | -24.3 | 1.5 | 0.3 | -3.9 | -1.7 | -10.8 | i
COc1cc(C2CC(=O)Oc3cc(C)cc(C)c32)cc(OC)c1OC (stereo not drawn) | 17.8 | -5.9 | 5.2 | 1.1 | / | / | / | /
CCOC(=O)c1c(NC(=O)CSc2nc3ccccc3[nH]2)sc2c1CC(C)(C)NC2(C)C | -182.8 | -14.6 | -2.3 | -2.3 | / | / | 2.3 | i
CC1=CC(C)C(C(=O)O)C(C(=O)O)C1 (stereo not drawn) | / | -1.0 | 1.9 | 6.6 | 7.3 | -2.6 | -4.9 | i

Bioassay records (PubChem)
